Screening data: PubChem, ICCB-Longwood Screening Facility, Harvard Medical School
Bm FixLJ act: B. multivorans fixK reporter activation; 0.3% of 29,000 active; z-score (test concentration not listed); B. multivorans fixK-promoter GFP reporter, 18 h; active compounds read high;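 active = replicate mean overnight rise in green fluorescent reporter signal, 3 or more SD over negative controls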;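 note: score is relative to vehicle wells of the plate; 300 nL library stock went into each well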
Numbers without * were called inactive.

SMILES	Bm FixLJ act
Cc1ccc(C(=O)c2c(N)c(C(=O)Nc3ccccc3Cl)c3ccccn23)cc1	-0.99
Cc1ccc(CN(Cc2ccco2)C(=O)c2ccccc2Cl)o1	0.36
COc1ccccc1CNC(=O)C1CCCN(c2nnc(-n3c(C)ccc3C)s2)C1 (stereo not given)	-0.62
CCOc1ccccc1NC(=O)C1CCN(S(=O)(=O)c2cc(Br)cc3c2N(C(C)=O)CC3)CC1	-0.13
Cc1cccc(-c2nnn3c2nc(NCCc2ccc(S(N)(=O)=O)cc2)c2cc(Cl)ccc23)c1	-1.5
CCn1c(=O)c2cc(C(=O)N(CC(C)C)CC(C)C)sc2c2ccccc21	1.2
CCc1ccc(OCc2nc(-c3ccc(-n4cccc4)cc3)no2)cc1	-2.6
Cc1cccc(CSc2nc3c(c(=O)[nH]2)CCC3)c1	1.1
Cn1c(Nc2ccc(Cl)cc2)cc(=O)n(C)c1=O	-0.97
Cc1ccccc1NC(=O)c1c(C)oc2ccc(O)c(CN3CCOCC3)c12	-0.94
COc1ccc(Nc2c(-c3ccc(Cl)cc3)nc3cnccn23)cc1OC	-1
COc1ccc(N2CCN(C(=O)CSCc3nc(-c4ccccc4Cl)oc3C)CC2)cc1	-0.47
CCCN(CC#Cc1ccccc1)C(=O)CCc1nc(-c2ccncc2)no1	-1.3
CN(Cc1ccno1)C(=O)c1cn(C(c2ccccc2)c2ccccc2)nn1	0.47
COc1ccc(CNC(=O)CCc2c(C)c3cc4c(C)coc4cc3oc2=O)cc1	0.98

Ordered by molecular weight (ascending): part of the list above
SMILES	Bm FixLJ act
Cc1ccc(CN(Cc2ccco2)C(=O)c2ccccc2Cl)o1	0.36
COc1ccccc1CNC(=O)C1CCCN(c2nnc(-n3c(C)ccc3C)s2)C1 (stereo not given)	-0.62
COc1ccc(N2CCN(C(=O)CSCc3nc(-c4ccccc4Cl)oc3C)CC2)cc1	-0.47

Returning to the listing, repeating the five entries before the break.
SMILES	Bm FixLJ act
COc1ccc(Nc2c(-c3ccc(Cl)cc3)nc3cnccn23)cc1OC	-1
COc1ccc(N2CCN(C(=O)CSCc3nc(-c4ccccc4Cl)oc3C)CC2)cc1	-0.47
CCCN(CC#Cc1ccccc1)C(=O)CCc1nc(-c2ccncc2)no1	-1.3
CN(Cc1ccno1)C(=O)c1cn(C(c2ccccc2)c2ccccc2)nn1	0.47
COc1ccc(CNC(=O)CCc2c(C)c3cc4c(C)coc4cc3oc2=O)cc1	0.98
Cc1ccc(CN2CCN(C(=O)c3ccnc(C(C)C)n3)CC2=O)cc1	0.03
Cn1ccnc1CN1CC2COC[C@]2(C(=O)NCCCc2csc(N)n2)C1 (stereo not given in full)	-0.44
Cc1cnccc1NCCNC(=O)c1csc(C(C)C)c1	0.63
CC(C)CCNC(=O)CCC(=O)NNc1nc2ccccc2c2nc(-c3ccccc3)nn12	1.7
COc1cc(Cl)c(C)cc1NC(=O)Cn1ncc2c3ccccc3n(Cc3ccccc3)c2c1=O	-0.76
CC(C(=O)N1CCC2(CC1)c1nc[nH]c1CCN2C(=O)C1CC1)n1ccnc1 (stereo not given)	-1.7
Cc1ccc(CSc2nc3ccncc3n2Cc2nc(-c3ccccc3C)oc2C)cc1	-1.1
CNC(=O)c1cc(-c2cccc(C(=O)N3CCCC3CO)c2)ccc1Cl (stereo not given)	-0.97
CCC(C)Sc1oc(-c2ccco2)nc1S(=O)(=O)c1ccc(Cl)cc1 (stereo not given)	-0.26
Cc1ccc(Cn2c(=O)n(CCCC(=O)NCc3ccccc3Cl)c(=O)c3ccccc32)cc1	0.75
Cc1ccc(S(=O)(=O)N(CC(=O)NCCSc2ccc(Cl)cc2)c2cccc(Cl)c2)cc1	-0.09
COc1ccccc1C(=O)NCCn1cc(SCc2ccc(C)cc2)c2ccccc21	2
CCOc1ccc(CCNC(=O)C2=C(C)C(=O)OC23CCCCC3)cc1	-1
Cc1ccc(OCC(=O)Nc2ccc(OCc3cc(=O)n4c(C)csc4n3)cc2)cc1C	2.7
Cc1cc(C)cc(OCC(=O)Nc2cccc(-c3nc4ccccc4[nH]3)c2)c1	-2.1

As entered above.
For Bm FixLJ act, Cc1cnccc1NCCNC(=O)c1csc(C(C)C)c1 has 0.63
For Bm FixLJ act, Cc1ccc(CN2CCN(C(=O)c3ccnc(C(C)C)n3)CC2=O)cc1 has 0.03
For Bm FixLJ act, CC(C)CCNC(=O)CCC(=O)NNc1nc2ccccc2c2nc(-c3ccccc3)nn12 has 1.7
For Bm FixLJ act, Cc1cc(C)cc(OCC(=O)Nc2cccc(-c3nc4ccccc4[nH]3)c2)c1 has -2.1

Next results
SMILES	Bm FixLJ act
Cc1ccc(NCc2nc3ccccc3n2CCOc2ccccc2C)cc1	0.99
CN(C(=O)CCNC(=O)c1ccc(F)cc1)C(c1ccccn1)C1CC1 (stereo not given)	-0.83
Cc1ccc(C)c(N2CCN(CCCNC(=O)Cn3ncc4c5ccccc5n(C)c4c3=O)CC2)c1	-1.6
CCOC(=O)c1oc2c(c1C)-c1nn(Cc3cccc(Cl)c3)cc1CC2	-0.75
O=C1NCC(O)Cn2nc(C(=O)N(Cc3ccccc3)CC3CCC3)cc21 (stereo not given)	-0.36
Cc1ccc(-c2nc3ccccc3[nH]2)cc1NC(=O)COc1ccccc1[N+](=O)[O-]	0.01
Cc1ccc(-n2nc(-c3ccccc3)c3cnc4cc5c(cc4c32)OCO5)cc1C	0.72
CCC(=O)N1CCc2[nH]cnc2C12CCN(C(=O)CC1COCCN1)CC2 (stereo not given)	0.06
CCOC(=O)c1[nH]c2ccccc2c1NC(=O)c1ccccc1OCC	0.19
O=C(Nc1ccc(Br)c(Cl)c1)c1ccc(C(=O)Nc2ccc(Br)c(Cl)c2)cc1	0.11
CN(C)Cc1nnc(C2CCN(C(=O)c3ncccc3O)CC2)n1C	-1.4
O=C(CSc1c2c(nc3cc(Cl)ccc13)CCCC2)NCc1ccccc1Cl	0.58
CCCn1c(NCc2ccccc2F)nc2ccccc21	-2.3
CS(=O)(=O)NC1CCN(C(=O)c2ccc(-c3cnccc3N)cc2)CC1	-1.7
CCCCSc1nc(N)cc(N2CC3C4CCC(O4)C3C2)n1 (stereo not given)	0.72

The closing two entries of the part above lead into the next.
SMILES	Bm FixLJ act
CS(=O)(=O)NC1CCN(C(=O)c2ccc(-c3cnccc3N)cc2)CC1	-1.7
CCCCSc1nc(N)cc(N2CC3C4CCC(O4)C3C2)n1 (stereo not given)	0.72
CCN(C)C(=O)c1ccc(NC2COCC2Cc2ccncc2)nc1 (stereo not given)	-1.5
COc1cc2oc(=O)c(CC(=O)NCc3ccc(OC)c(OC)c3)c(C)c2cc1Cl	-0.64
Oc1ccc(-c2nc(-c3ccccc3)c(-c3ccc(Br)cc3)[nH]2)cc1	-0.34
C#CCn1cnc2c(cnn2-c2ccc(F)cc2)c1=O	-0.99
Cc1ccccc1NC(=O)Cn1c(=O)n(Cc2ccco2)c(=O)c2ccc(C(=O)NC3CCCC3)cc21	-1.6
CC1CCN(S(=O)(=O)c2ccc3c(c2)CCN3C(=O)Nc2ccc(Br)cc2F)CC1	0.18
COc1cccc(Nc2c3c(nc4nncn24)CCC3)c1	-0.84
CCS(=O)(=O)c1nc(S(=O)(=O)c2ccc(C)cc2)c(NC)s1	-0.21
Cc1ccc(Nc2c(-c3ccc(N(C)C)cc3)nc3nc[nH]n23)cc1	0.31
Cc1cc(=O)n2c(C(=O)Nc3ccc(F)c(Cl)c3)c(C(=O)Nc3cccc(C)c3C)sc2n1	-0.45
CCCCC12CN3CC(C)(CN(C1)C3c1ccc(O)c(OC)c1)C2=O (stereo not given)	-1.2
Cc1cc(C)c(CN2CCN(c3cc(N)nc(N)n3)CC2)c(-n2cccn2)c1	-2.3
CCNC(=O)CC1C(=O)N(c2ccc(C)cc2)C(=O)N1Cc1ccc(C)cc1 (stereo not given)	-0.66
C=CCc1ccccc1OCc1nc2ccccc2n1CC	-2.2
CCOc1ccc(Cl)cc1CN(C)C(=O)Nc1cn(C)nn1	0.15
CCn1c(C(=O)NCc2ccc(OC)cc2)cc2sc(Cl)cc21	1.6
COc1ccc(Cn2cc(-c3c[nH]c(C(=O)N4CCOCC4)c3)cn2)cc1	-0.63
CCc1ccc(-n2nc(CO)c(C(=O)NC)n2)cc1	0.09
COc1cncc(-c2cccc(C(=O)N(Cc3cnn(C)c3)C3CC3)c2)c1	-0.61
CCCN(CCC)CCCNC(=O)Cn1cnc2sc(C)c(S(=O)(=O)N3CCCCC3)c2c1=O	-0.98
CCCC1=Nc2cc(C(=O)NCCCN(CC)CC)ccc2Sc2ccccc21	-0.04
CCOC(=O)c1c(C)c(-c2ccccc2)n(CC(=O)NCCc2ccc(C)cc2)c1C	-0.96
CCOC(=O)c1c(NC(=O)c2cc(-c3cccc(Cl)c3)on2)sc(C)c1C	-1.3
CCOC(=O)c1[nH]c2ccccc2c1NC(=O)c1ccccc1F	-1.6
CCOc1ccccc1C(=O)NC1(C(F)(F)F)NC(=O)N(CCc2ccc(OC)c(OC)c2)C1=O (stereo not given)	-3.3
Cc1ccccc1C(=O)NC1(C(F)(F)F)C(=O)Nc2c1c(=O)[nH]c(=O)n2-c1ccc(F)cc1 (stereo not given)	1.4
Cn1c([N+](=O)[O-])cnc1COC(N)=O	0.16
OCc1cc(C(O)CNCCCCCCOCCCCc2ccccc2)ccc1O (stereo not given)	-1.4
Cc1nc2c(-c3ccc(F)cc3)c(C)nn2c(C)c1CCC(=O)N1CCN(c2ccc(F)cc2)CC1	0.44
COc1ccccc1NC(=O)c1cc(=O)c2ccc(C)c(C)c2o1	-2.1
COc1ccccc1NC(=O)N1CC=C(c2c[nH]c3ccccc23)CC1	-0.64
CCOC(=O)C1=C(CNCc2ccc(Cl)cc2)NC(=O)NC1c1ccccc1 (stereo not given)	0.04
COc1ccc(CN(C)C(=O)c2ccccc2C2CCNC2)c2cccnc12 (stereo not given)	-0.41
O=C(NCC1C2CC[C@]3(CN(C(=O)CO)C[C@@H]13)O2)c1ccc2c(c1)CCO2 (stereo not given in full)	0.24
O=C(NCc1cccc(F)c1)c1ccc2nc(N3CCCCC3)sc2c1	-2
CC(=O)c1ccc(NC(=O)c2cc3sccc3n2Cc2ccc(F)cc2)cc1	1
COc1ccc(-c2cc(C(F)(F)F)n3nc(C(=O)Nc4cccc(Cl)c4C)cc3n2)cc1	-0.06
O=C1NCN(c2ccccc2)C12CCN(CCCC(c1ccc(F)cc1)c1ccc(F)cc1)CC2	-1.6
COc1cc(NS(=O)(=O)c2cccs2)cc(OC)c1	-1.1
COc1ccc(F)c(CN2CC(O)C(Cc3cc(C)no3)C2)c1 (stereo not given)	-0.22
Cn1c(=O)c2c(nc(SCC(=O)Nc3ccc(F)cc3)n2Cc2ccc(Cl)cc2)n(C)c1=O	-2
CCC(=O)c1ccc(OCC(=O)NCc2cc(F)ccc2C)cc1	-1.2
Cc1onc(-c2ccccc2)c1C(=O)NCc1noc(Cc2cccs2)n1	0.81
CCC(=O)N1CCc2cc(CNS(=O)(=O)c3ccc(C(C)C)cc3)ccc21	-0.5
COc1ccc(CCN2C(=O)c3[nH]nc(-c4ccccc4O)c3C2c2cccc(OC)c2)cc1 (stereo not given)	1.1
COC1C(NC(=O)c2cc(C)ccc2C)c2ccccc2C12CCNCC2 (stereo not given)	-2.7
COc1cc(Cl)cc(C(=O)N2CC(O)C(Cc3cc(C)no3)C2)c1 (stereo not given)	-0.07
O=C(c1cccc(Cl)c1)N1CCn2nc(CNc3ncccn3)cc2C1	-2.3
CCOC(=O)c1c(NC(=O)c2ccc(OCC)c(Br)c2)sc2c1CCCC2	-0.71
CN(CC(=O)N1CCOc2ccc(CO)cc2C1)C1CCS(=O)(=O)C1 (stereo not given)	-2.1
O=C(CCc1nc2ccc(F)cc2[nH]1)N1CCC(N2CCc3ccccc3C2)CC1	0.17
COc1ccc2[nH]cc(CCNC(=O)Nc3ccc(F)cc3)c2c1	-1.8
CN(CC1(CO)CCOCC1)C(=O)Nc1cccc(Cc2ccccc2)c1	0.04
Cc1ccc(CCNC(=O)CCCc2nnc3n(C)c(=O)c4sccc4n23)cc1	-0.24
CCc1ccc2occ(CC(=O)Nc3c(C(=O)Nc4ccc(C)cc4)oc4ccccc34)c2c1	0.66
CCc1ccc(-n2c(=O)c3c4c(sc3n(CC(=O)c3ccc(Cl)cc3)c2=O)CCC4)cc1	-4.2
Cc1ccccc1Cn1c(SCc2ccc(C(=O)NC3CCCC3)cc2)nc2ccncc21	-3.3
O=C(NC1CCN(Cc2cccs2)CC1)c1ccc(SCCO)cc1	-2
CC(C)c1ccc(C2CC(=O)Nc3cc4c(cc32)OCCO4)cc1 (stereo not given)	-0.98
O=C(Nc1ccc2oc(-c3cc(Br)ccc3Cl)nc2c1)c1cc2ccccc2o1	-2

Other entries.
SMILES	Bm FixLJ act
COc1cccc(-c2nnc(-c3ccccc3NC(=O)c3ccc(F)cc3F)o2)c1	-2.3
CCn1ccc(CN2CCCC3(CCc4cnc(N(C)C)nc43)C2)n1 (stereo not given)	-2
COc1ccc(CCNC(=O)CCCCn2c(=O)c3ccccc3n(Cc3ccc(Cl)cc3)c2=O)cc1OC	-3.9
Cc1oc(-c2cccc(Cl)c2)nc1CN1CCCC(C(=O)NCCc2ccc(Cl)cc2)C1 (stereo not given)	-1.1
CCCNC(=O)c1c(NC(=O)c2ccccc2F)sc2c1CCCCC2	-0.25
COc1ccc(CCNC(=O)CS(=O)Cc2nc(-c3ccccc3F)oc2C)cc1OC (stereo not given)	-2.3
CCCCOc1cccc(-c2c[nH]c(C(=O)N3CCOCC3)c2)c1	1.3
Cc1ccc(-c2nnc(Nc3ccc(O)cc3)c3ccccc23)cc1S(=O)(=O)N1CCN(C)CC1	-1.1
CCOc1ccc(N(CC)C(=O)C2CCN(S(=O)(=O)c3cccc4nonc34)CC2)cc1	-2.6
Cc1[nH]c2ccccc2c(=O)c1CCC(=O)N1CCC2(CCO2)CC1	-0.72
CCCN(CC1CC1)C(=O)c1cccc(-c2ccnc(OC)c2C#N)c1	1.5
Cc1ccccc1C(=O)N1CCC(c2nc(-c3ccc(S(=O)(=O)N4CCCC4)cc3)no2)CC1	-0.38
COc1cc(/C=C/c2nc(C#N)c(N3CCN(C)CC3)o2)cc(OC)c1OC	-1.4
COCCNC(=O)CCCn1c(SCC(=O)Nc2ccc(F)cc2)nc2c(sc3ccccc32)c1=O	-1.7
Cc1cc(NC(=O)C(C)(C)C)cc(-c2nc3ncccc3o2)c1O	-0.36

Not all compounds are listed; count on the stated rates, not on these rows.
